KCNQ2 pot: KCNQ2 (rat) channel potentiation | B-score at 10 µM | O88943 | CHO-K1 KCNQ2, FluxOR thallium flux fluorescence; hits give high values | actives 0.54% (n = 310,000);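 active = fluorescence ratio B-score at least 3 SD of library B-scores, with initial fluorescence B-score within 3 SD, cut at about 5.3 in these data; same plate scores as AID 2156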;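 also: B-score of peak minus minimum over baseline fluorescence ratio after K+ and Tl+ stimulus; positive B-score means potentiation of KCNQ2 with more thallium influx and brighter signal; only the inactives scoring about 0 or higher are listed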
Target sequence (O88943 whole entry, looked up): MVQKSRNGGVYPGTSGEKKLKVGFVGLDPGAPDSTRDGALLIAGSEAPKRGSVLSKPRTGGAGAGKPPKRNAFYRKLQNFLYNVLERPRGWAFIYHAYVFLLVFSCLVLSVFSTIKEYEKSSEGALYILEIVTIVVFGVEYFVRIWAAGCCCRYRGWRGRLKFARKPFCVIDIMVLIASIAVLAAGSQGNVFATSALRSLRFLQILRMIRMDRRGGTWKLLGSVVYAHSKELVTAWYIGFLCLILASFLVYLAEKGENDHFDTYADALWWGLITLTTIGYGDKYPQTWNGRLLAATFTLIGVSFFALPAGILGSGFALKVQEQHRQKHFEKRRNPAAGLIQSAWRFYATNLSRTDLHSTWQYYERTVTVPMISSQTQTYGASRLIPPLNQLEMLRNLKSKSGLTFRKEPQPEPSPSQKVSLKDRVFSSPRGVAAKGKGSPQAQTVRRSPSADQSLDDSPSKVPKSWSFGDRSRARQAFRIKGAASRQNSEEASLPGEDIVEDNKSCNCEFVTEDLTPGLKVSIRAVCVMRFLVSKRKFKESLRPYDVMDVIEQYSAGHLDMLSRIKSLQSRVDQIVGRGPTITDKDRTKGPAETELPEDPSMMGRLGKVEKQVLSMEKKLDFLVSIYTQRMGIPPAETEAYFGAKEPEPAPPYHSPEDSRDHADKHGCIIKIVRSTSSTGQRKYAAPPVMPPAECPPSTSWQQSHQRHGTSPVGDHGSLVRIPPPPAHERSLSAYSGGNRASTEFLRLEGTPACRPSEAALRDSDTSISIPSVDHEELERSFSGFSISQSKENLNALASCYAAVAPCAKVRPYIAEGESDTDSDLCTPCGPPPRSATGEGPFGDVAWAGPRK
KCNQ2 pot baseline: also measured in KCNQ2 pot; calls as there; B-score; compound at 10 µM; measured here: initial fluorescence intensity artifact check;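 brightness before thallium and not channel activity; 0 = typical well and far values either way flag optical interference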
Active calls of the source: *. These rows are one share of the data; the hit share may differ from the screen's.

KCNQ2 pot,KCNQ2 pot baseline,mol
0.34,0.48,COc1cc(C(=O)OCC(=O)N(CC(C)C)C2CCS(=O)(=O)C2)ccc1OCC(C)C (stereo not given)
0.84,-0.98,COc1ccc(CCNc2cn[nH]c(=O)c2Cl)cc1OC
1.5,-1.9,Cn1c(=NC(=O)c2ccc3c(c2)OCCO3)sc2cc(S(C)(=O)=O)ccc21
0.34,0.21,O=C(CSc1nnc(CN2CCOCC2)n1-c1ccc(Cl)cc1)Nc1ccc2c(c1)OCO2
0.5,-1.1,N=C1S/C(=C\c2ccccc2)C(=O)N1c1ccc(F)cc1
0.13,0.24,COc1cccc(N(C(=O)c2snc(C(N)=O)c2N)C(C(=O)NCC2CCCO2)c2ccc(F)cc2)c1 (stereo not given)
0.86,-0.75,COc1cccc(C2=NOC(C(=O)Nc3cccc(C(C)=O)c3)C2)c1 (stereo not given)
0.5,-0.04,O=C(CSCc1ccc(F)cc1)NC1CCCC1
3.4,-0.11,CCN(CC)CCCNC(=O)CCC(=O)Nc1ccc2nc(N3CCCCC3)cc(C)c2c1
1.1,-1.1,CCC1CCC(N2CCN(c3ccccc3F)CC2)CC1 (stereo not given)

Grouped by structure: the entries above containing nitrogen in an aromatic ring.
KCNQ2 pot,KCNQ2 pot baseline,mol
0.84,-0.98,COc1ccc(CCNc2cn[nH]c(=O)c2Cl)cc1OC
1.5,-1.9,Cn1c(=NC(=O)c2ccc3c(c2)OCCO3)sc2cc(S(C)(=O)=O)ccc21
0.34,0.21,O=C(CSc1nnc(CN2CCOCC2)n1-c1ccc(Cl)cc1)Nc1ccc2c(c1)OCO2
0.13,0.24,COc1cccc(N(C(=O)c2snc(C(N)=O)c2N)C(C(=O)NCC2CCCO2)c2ccc(F)cc2)c1 (stereo not given)
3.4,-0.11,CCN(CC)CCCNC(=O)CCC(=O)Nc1ccc2nc(N3CCCCC3)cc(C)c2c1

(more compounds)
KCNQ2 pot,KCNQ2 pot baseline,mol
0.87,0.65,O=C(Cc1cccs1)Nc1nnc(-c2ccc(F)cc2)s1
0.26,-0.09,O=C(CCCSc1nc2ccccc2[nH]1)NC1CCCCC1
1.2,1.7,COc1cccc(/C=N/NC(=O)CCCc2ccc(OC)c(C)c2)c1
0.02,0.01,CCCCN(C)CCNC(=O)Cn1c(=O)sc2ccccc21
1.2,0.01,CN=C1S/C(=C/c2cn(CC(=O)OC)c3ccccc23)C(=O)N1C
0.6,1.8,CCn1nnnc1NCc1cccc(Cl)c1
0.14,0.46,COc1ccc2cc(S(=O)(=O)N3CCN(C)CC3)ccc2c1
1.1,-1.2,CCOC(=O)N/N=C/c1cn(CCCOc2ccc(C)cc2)c2ccccc12
0.24,0.03,O=C(N/N=C/c1ccc(F)cc1)c1cccc(NC(=O)c2ccc(F)cc2)c1
0.13,-1,COc1cccc(C(=O)Nc2ccc(-n3nncc3C(C)(C)C)cc2)c1
0.33,-0.09,Cc1ccccc1NC(=O)Nc1ccccc1N1CCCCC1
2.1,-1.8,Fc1cc(F)cc(NC(=S)NCCCN2CCOCC2)c1
1.9,0.07,Cc1cc(NS(=O)(=O)c2ccc(NC(=O)Cc3ccccc3)cc2)nc(C)n1
0.17,0.84,CN1C(=O)C(O)(c2nnc(-c3ccccc3)o2)c2ccccc21 (stereo not given)
0.24,-0.01,NC(=O)c1cc[n+](CC(=O)c2ccc(NC(=O)c3ccccc3)cc2)cc1
4.9,0.76,CC1CCc2nn(CC(=O)NC3CCCC(C)C3C)cc2C1 (stereo not given)
1.8,-0.84,Cc1cc(-c2ccc(Br)cc2)n[nH]1
1.1,1.2,CCC(=O)Nc1ccc(NC(=O)CSc2nnc(C(C)C)n2C)cc1
0.01,0.59,O=C(CSc1nc2ccccc2c(=O)n1Cc1ccccc1)NCc1ccco1
0.02,0.74,Cc1nc(SCC(=O)c2cccc([N+](=O)[O-])c2)n[nH]1
0.23,-1.8,O=C(NCC1CCCO1)c1ccc(CSCc2cccc(F)c2)o1 (stereo not given)
0.01,0,COc1ccc(C(=O)NCCSc2ccc(C)cc2)cc1
0.07,-0.28,COC(=O)c1sccc1NC(=O)Nc1ccc(C)cc1
1.1,0.23,C[C@@H](C(=O)Nc1cccc(S(=O)(=O)N2CCOCC2)c1)N1C(=O)C2CC=CCC2C1=O (stereo not given in full)
0.77,0.39,Cc1ccc(C(CC(=O)N2CCCC2)c2ccccc2)c(O)c1C (stereo not given)
0.49,2.2,O=C(c1ccc(OC2CCN(Cc3cccc(OCCO)c3)CC2)cc1)N1CCCC1
0.05,0.62,Cc1cccc2cc(CN(Cc3ccc(F)cc3)C(=O)N3CCOCC3)c(=O)[nH]c12
1.1,1.6,COc1ccccc1OCC(=O)NCCc1nc2ccccc2[nH]1
1.9,-1.4,O=C(NCc1ccco1)c1ccc2c(c1)C(=O)N(C1CCCCC1)C2=O
0.95,-0.64,Cc1cccc(-n2nc(CC#N)c(C#N)c2N)c1
0.22,-1.1,CC(=O)c1c(O)c2ccccc2n(Cc2ccccc2)c1=O
0.17,-1.2,O=C(NCCCN1CCN(c2cccc(Cl)c2)CC1)c1cccc(N2CCCC2=O)c1
0.07,1.6,CCc1noc(C)c1C(=O)N1CCCC(CCC(=O)NCc2cccc(OC)c2)C1 (stereo not given)
1.1,0.46,COc1cc(NC(=O)C2CC2)c(C(=O)O)cc1OC
0.4,0.36,O=C(Nc1ccccc1)N1CCC(c2ccccc2)C1 (stereo not given)
1.6,0.28,O=C(COC(=O)c1cccs1)c1ccc2ccccc2c1
1.7,-0.5,O=C(NCC(=O)N(c1cccc(F)c1)C(C(=O)NC1CCCC1)c1ccco1)c1ccco1 (stereo not given)
0.45,-0.47,O=C(CSc1nnnn1-c1cccc2ccccc12)NC(C(=O)O)(c1ccccc1)c1ccccc1
0.56,1.4,O=C1NN(c2ccccc2)C(=O)C2C3C=CC(C4CC34)C12 (stereo not given)
0.97,0.73,COc1ccc(NC(=O)CC2C(=O)N(c3cccc(OC)c3)C(=O)N2C(C)C)cc1 (stereo not given)
0.17,-0.05,O=S(=O)(/N=C(/NC(=S)Nc1ccccc1)c1ccccc1)c1ccc(Cl)cc1
0.11,0.6,COc1cccc(N(CC(=O)N2CCCC2)S(C)(=O)=O)c1
0.59,0.79,COc1ccccc1C(=O)CSc1n[nH]c(N)n1
0.77,-0.76,CCOc1ccc(C2CC(c3cccc(Cl)c3)n3nc(N)nc3N2)cc1 (stereo not given)
0.11,0.49,O=C(Nc1ccc(NC(=O)c2ccco2)cc1)c1ccco1
0.9,-0.5,O=C(NCc1cccnc1)c1ccc(Cl)c(Cl)c1
0.78,-1.3,CCOC(=O)C(=O)/C(C#N)=C/Nc1ccccc1
0.54,0.03,CSc1ccc(Cl)c(C(=O)OCC(=O)Nc2ccccc2OC(F)F)c1
0.94,-0.67,CSc1ccccc1OCc1cc(C(=O)N(C)Cc2cc(C)[nH]n2)no1
0.67,0.94,COc1ccc(S(=O)(=O)Nc2ccc(Oc3ccsc3C(=O)O)cc2)cc1

Carrying on.
KCNQ2 pot,KCNQ2 pot baseline,mol
3.1,0.27,CCS(=O)(=O)c1ccc2oc(Nc3cccc(OC)c3)nc2c1
1.2,-0.3,CCSc1nnc([C@@H]2CCCN2C(=O)OC(C)(C)C)o1
0.03,0.3,CC(=O)Nc1ccc(O)c(-c2nc3ccccc3s2)c1
0.01,0.41,Cc1cccc(N(CC(=O)N2CCOCC2)S(C)(=O)=O)c1
0.63,0.23,Fc1cccc(Cl)c1-c1nnc2ccc(N3CCOCC3)nn12
0.79,-0.39,O=C(NCC1CC1)C1CCCN(S(=O)(=O)c2ccc(-n3cnnn3)cc2)C1 (stereo not given)
1.2,1.2,COc1cc(/C=C2/CCCC(C(=O)C(F)(F)F)=C2O)ccc1O
0.88,-1.5,COc1ccc(/C=C/C(=O)Oc2ccc(/C=N\NC(=O)c3ccc(F)cc3)cc2)cc1
1.9,0.5,CC(C)c1nc(SCC(=O)NC2CCCCC2)c2ccccc2n1
0.88,2,CCC(C)(C)NCC(=O)Nc1ccc(OC(F)(F)F)cc1
9.5*,-1*,Cc1occc1C(=O)NNC(=S)NC(=O)COc1ccc(Cl)cc1Cl
0.68,0.09,N#Cc1ccc(COc2cccnc2[N+](=O)[O-])cc1
0.07,1.7,CCCS(=O)(=O)N1CCCC(C(=O)NCCCOC(C)C)C1 (stereo not given)
0.62,-0.55,COc1ccc(-c2cc(-c3ccc(C)cc3)nc(SCc3nnc(-c4ccccc4)o3)c2C#N)cc1OC
0.29,0.71,O=C(NN1C(=O)C2C3C=CC(C3)C2C1=O)c1ccncc1 (stereo not given)
0.07,-1.2,C[C@H](NC(=O)[C@@H]1CSC2c3ccccc3C(=O)N21)C(=O)NC1CCCCC1 (stereo not given in full)
0.66,-0.69,N#C/C(=C/c1ccc(Cl)cc1)NC(=O)c1ccccc1
0.75,0.87,CCC(=O)N1CCc2cc(S(=O)(=O)N3CCCCCC3)ccc21
1.2,-0.78,O=C(Nc1ccc(Br)cc1)C1CCCN1S(=O)(=O)c1cccs1 (stereo not given)
0.75,1.8,COc1cc(/C=C2\SC(=S)N(NS(=O)(=O)c3ccccc3)C2=O)ccc1O
0.7,1.2,Cc1cccc(-c2nnn(C/C(N)=N/O)n2)c1
0.15,-2,O=C(c1ccc2oc(CCc3ccccc3)nc2c1)N1CCC(O)CC1
1.3,0.11,CCN1CCN(Cc2ccc(NC(=O)c3ccc(C)c(NC(=O)c4cccc(-c5cn[nH]c(=O)c5)c4)c3)cc2C(F)(F)F)CC1
0.46,-0.22,COc1cc(CN2CCCCCC2)cc(OC)c1
0.37,0.19,CC(C)C(NC(=O)c1ccccc1NC(=O)c1ccccc1)C(=O)NCCCn1ccnc1 (stereo not given)
2.1,-1.8,Cc1ccc(OCC(=O)N/N=C/c2cccc3cccnc23)cc1
0.69,0.19,Cc1cccn2c(=O)c3cc(S(=O)(=O)c4ccccc4)c(=N)n(CC4CCCO4)c3nc12 (stereo not given)
1,-0.19,COc1cc2c(cc1OC)[C@@H]1Cc3ccc(OC)c(OC)c3CN1CC2
0.13,-0.38,O=C(COC(=O)C1CCN(S(=O)(=O)c2cccs2)CC1)c1ccccc1
1.3,1.3,COc1ccc(CCNC(=O)C2CCN(c3nn4c(=O)cc(C)nc4s3)CC2)cc1OC

The closing 4 entries of the part above lead into the next.
KCNQ2 pot,KCNQ2 pot baseline,mol
0.69,0.19,Cc1cccn2c(=O)c3cc(S(=O)(=O)c4ccccc4)c(=N)n(CC4CCCO4)c3nc12 (stereo not given)
1,-0.19,COc1cc2c(cc1OC)[C@@H]1Cc3ccc(OC)c(OC)c3CN1CC2
0.13,-0.38,O=C(COC(=O)C1CCN(S(=O)(=O)c2cccs2)CC1)c1ccccc1
1.3,1.3,COc1ccc(CCNC(=O)C2CCN(c3nn4c(=O)cc(C)nc4s3)CC2)cc1OC
0.41,0.66,CCOC(=O)c1c(O)c(O)c(C(=O)OCC)n1-c1ccccc1
0.32,-2.5,Cc1cccc(Oc2ccc(C(=O)NC3CCSC3=O)cn2)c1C (stereo not given)
1.7,-1.3,CC(=O)N1CCc2cc(S(=O)(=O)N3c4ccccc4CC3C)ccc21 (stereo not given)
0.12,-2.1,N#Cc1cnn2c(C(F)(F)F)cc(-c3ccccc3)nc12
1.6,-1.4,COc1cc2c(cc1OC)C1=C(C#N)CN(CC(=O)O)CN1CC2
1.9,0.01,Cn1c(O)c(N=Nc2ccccc2[N+](=O)[O-])c2ccccc21
0.36,0.06,Cc1cc(C)c(S(=O)(=O)N2CCC(C(=O)NCc3ccncc3)CC2)c(C)c1
0.54,-1.1,CC1CC(C)CN(C(=O)C2CCN(C(=O)Nc3ccccc3)CC2)C1 (stereo not given)
0.1,1,COc1ccccc1CN1CCCC(CN(CCN(C)C)C(=O)c2ccc(C)cc2)C1 (stereo not given)
0.02,0.08,CCOC(=O)c1c(CC(C)C)csc1NC(=O)COC(=O)C1=NNC(=O)CC1
0.13,0.68,Cc1oc2ccc(Br)cc2c(=O)c1-c1nn[nH]n1
1.6,0.33,COc1ccc(C2C3=C(CC(C)(C)CC3=O)Nc3nc(C)nn32)cc1OC (stereo not given)
2.5,0.07,CCCS/C(N)=N/N=C/c1ccccc1O
0.55,0.24,O=C(Nc1ncn[nH]1)c1cccc(S(=O)(=O)N2CCOCC2)c1
0.41,2.5,CCOC(=O)N1CCN(c2ccc([N+](=O)[O-])cc2F)CC1C (stereo not given)
2.2,-2.6,NS(=O)(=O)c1cc([N+](=O)[O-])ccc1NCc1cccnc1
1.4,0.17,O=C(O)C1C2CCC(O2)C1C(=O)Nc1ccc(Br)cc1F (stereo not given)
0.09,-0.97,C/C(=N\NC(=O)Cc1cccn1C)c1ccc([N+](=O)[O-])cc1
0.09,-2,N#Cc1ccc(Cn2ccnc2C(=O)Nc2ccccc2)cc1
16*,0.05*,COCCn1c(=S)[nH]c2sc3c(c2c1=O)CCC(C)C3 (stereo not given)

An excerpt from above in order of their number in KCNQ2 pot baseline, lowest first.
KCNQ2 pot,KCNQ2 pot baseline,mol
2.2,-2.6,NS(=O)(=O)c1cc([N+](=O)[O-])ccc1NCc1cccnc1
16*,0.05*,COCCn1c(=S)[nH]c2sc3c(c2c1=O)CCC(C)C3 (stereo not given)
2.5,0.07,CCCS/C(N)=N/N=C/c1ccccc1O
0.55,0.24,O=C(Nc1ncn[nH]1)c1cccc(S(=O)(=O)N2CCOCC2)c1

(next part)
KCNQ2 pot,KCNQ2 pot baseline,mol
1.2,0.32,COc1ccc(OC)c(N(CC(=O)NCCSCc2ccc(C)cc2)S(C)(=O)=O)c1
0.14,-1.2,CC(C)OC(=O)c1cc(C(=O)c2cc(Cl)ccc2O)coc1=N
2.2,0,COc1ccc(CC(=O)NCC2CCCN(Cc3cc(OC)cc(OC)c3)C2)cc1 (stereo not given)
0.09,-1.7,COc1ccccc1NC(=S)N1CCC(NC(=O)C23CC4CC(CC(C4)C2)C3)CC1
0.15,0.98,Cc1ccc(NC(=O)CN(C)C(=O)/C=C/c2cccs2)cc1
0.84,1.7,CCC(Oc1ccccc1)C(=O)N(C)CC(=O)N(CC(C)C)c1c(N)n(CC(C)C)c(=O)[nH]c1=O (stereo not given)
